Source: PubChem
Ba CapD inh: CapD enzyme inhibition. purified CapD enzyme, fluorescence intensity read-out; active compounds read low; some hits fall short of the stated cut. z-score (concentration not given with the values). 0.23% of 140,000 active. AID 492967;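 active means z-score under -4 in either of two replicates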;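 further: stock transfer was 100 nL into about 40 µL; score is relative to mean and spread of the plate; one replicate is shown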
AID504770: E. coli YBA685 growth inhibition, screen for V. cholerae RctB inhibitors. E. coli YBA685 rctB-dependent plasmid, OD600 growth, 3 h; active compounds read low. z-score (no concentration beside the values). 0.27% of 130,000 active. AID 504770;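 active means z-score under -2 on both plates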;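 further: wells of about 30 µL received 100 nL stock; score is relative to mean and SD of the test wells; the first replicate is given; strong numbers were not always called active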
Starred values were filed as active, the others as inactive; nt = no result given. Not all compounds are listed. The share of hits here may be higher or lower than overall.

SMILES	Ba CapD inh	AID504770
Cc1nn(C)c(Oc2ccc(Cl)cc2)c1C(=O)Nc1ccc(F)cc1F	-0.185	nt
COc1cccc(/C=C2\C(=O)NC(=O)N(c3ccc(Br)cc3)C2=O)c1O	-0.425	nt
O=C(COc1ccc2ccccc2c1)Nc1ccc2nn(-c3ccccc3)nc2c1	-0.75	-0.4
C=CCSc1nc2ccccc2n1Cc1cc(C(=O)OC)c(C)o1	nt	-0.75
CS(=O)(=O)N1CCN(S(C)(=O)=O)C2OCCOC21 (centres undefined)	0.085	0.2
CCOC1=CC2=C(CC(C)(C)CC2=O)OC1N(C)C (centres undefined)	nt	-0.75
COc1ccc(C(=O)N2CCN(C/C=C/c3ccccc3)CC2)cc1OCc1ccccc1	-0.615	nt
CN(C)c1ccc(-c2nc(-c3ccccc3)c(-c3ccc(Oc4ccccc4)cc3)[nH]2)cc1	-0.135	nt
CCOC(=O)N1CCN(C(=O)C2c3ccccc3C(=O)N(c3ccc(OC)cc3)C2c2ccc(OC)cc2)CC1 (centres undefined)	-0.045	-0.95
CN(C)c1ccc(-c2nc3ccccc3[nH]2)cc1	90.8	-0.85
COCCOC(=O)C1=C(C)NC2=C(C(=O)CC(c3ccc(OC)c(OC)c3)C2)C1c1cc(OC)ccc1OC (centres undefined)	3.35	nt
CCn1c(CCNC(C)=O)nc2ccccc21	-0.385	-0.8
COc1cc(OC)c(OC)cc1/C=C1/N=C(c2cc([N+](=O)[O-])ccc2Cl)OC1=O	1.06	nt
O=C(CSc1ncnc2c1nnn2-c1ccc(F)cc1)N1CCCc2ccccc21	0.74	-0.4
Clc1ccccc1OCc1nn[nH]n1	0.75	-0.3
CC(=O)NCc1ccc(C(=O)CSc2nnc(-c3cccc(C)c3)n2-c2ccc(C)cc2)o1	nt	0.15
CC1CC(C)CN(C(=O)c2ccc(CNS(=O)(=O)c3ccc(F)cc3)cc2)C1 (centres undefined)	-0.09	-0.65
FC(F)=C(F)CCSc1ncn(-c2ncc(C(F)(F)F)cc2Cl)n1	0.065	nt
CCC(=O)N1N=C(c2ccccc2)CC1c1ccc(N(C)C)cc1 (centres undefined)	9.85	1.45
CCN(CC)c1ccc(C=Nc2ccc(S(=O)(=O)N3CCCC3)cc2)c(O)c1	nt	0.45
O=C(c1c(NS(=O)(=O)c2ccc3c(c2)OCCO3)sc2c1CCCC2)N1CCOCC1	nt	-0.45
CC(Oc1ccc(/C=C2\C(=O)NC(=O)N(c3cccc(Cl)c3)C2=O)cc1)C(=O)O (centres undefined)	-0.685	nt
CC(C)N(Cc1ccccc1)C(=O)C(C)(C)C	0.275	-0.6
O=C(O)Cc1cc(I)c(Oc2ccc(O)c(I)c2)c(I)c1	-0.38	nt
O/N=C/c1ncc(C(F)(F)F)cc1Sc1ccc(Cl)cc1	0.185	-0.05
COc1ccc(C2C(CN3CCCCC3)C(=O)N2c2ccccc2)cc1 (centres undefined)	-0.015	nt
CN(C)C(CNC(=O)C(c1ccccc1)c1ccccc1)c1ccco1 (centres undefined)	nt	0.75
CCn1c(-c2ccc(C)cc2)nc2ccccc21	0.05	-0.95
Cc1nnsc1C(=O)NCc1cc(F)cc2c1OCOC2	0.445	-1.15
Cc1c(-c2ccc(Cl)cc2)nc2ccccc2c1C(=O)NCCN1CCOCC1	-0.495	nt
CC1CCC(C(=O)NC(C(=O)NC2CCN(Cc3ccccc3)CC2)C(C)C)CC1 (centres undefined)	0.32	0.55
O=C(CNc1ccc2c(c1)oc1ccccc12)c1ccc(F)cc1	0.645	-0.3
COC(=O)C1=C(C(=O)OC)SC(=C2C(=S)C(C)(C)N(C(=O)CN3C(=O)c4ccccc4C3=O)c3cc(C)c(C)cc32)S1	-0.235	nt
CC1=NC(=O)CN1c1ccc(N)cc1	0.395	-0.25
CCC(CO)NC(=S)Nc1c(Cl)cccc1Cl (centres undefined)	0.81	0.4
O=C(CCc1ccccc1)Nc1ccccc1	nt	-0.5
O=C(NC1CCCCC1)N1CC=C(c2ccccc2)CC1	nt	0.55
CCOC(=O)CSCc1c(C)c(C)c(C)c(C)c1C	0.06	nt
CSc1cc(C(F)(F)F)nc(-c2ccccn2)n1	-0.98	0
CCCCn1c(C)csc1=Nc1ccccc1	nt	0.4
CC1(c2ccccc2)CCC(=O)O1 (centres undefined)	0.04	1.85
CC(NC(=O)CSc1ccccc1Cl)c1ccccc1 (centres undefined)	-0.035	0.85
Cc1ccc(NC(=O)COC(=O)CC2CCCC2)cc1F	nt	1.6
CC(=O)Nc1ccccc1C(=O)N(Cc1ccccc1)Cc1ccccc1	-0.56	-0.15
Cn1c(=O)c2c(nc(NC(CO)CO)n2Cc2ccc(Br)cc2)n(C)c1=O	-0.66	nt
O=C(N1CCSCC1)C12CC3CC(CC(C3)C1)C2	0.725	0.4
CC(C)C(NS(=O)(=O)c1ccc2c(c1)CCCC(=O)N2)C(=O)NC1CCCC1 (centres undefined)	0.545	-0.2
CCCN(CCC)C(=O)c1cc2sc3ccccc3c2s1	nt	-1.3
O=C(CSc1nnc(NC2=NS(=O)(=O)c3ccccc32)s1)N1CCOCC1	nt	-0.45
Cc1cc(NC(=O)CN2CCN(S(=O)(=O)c3ccc(Cl)cc3)CC2)no1	nt	-0.55
O=C(c1ccc(Cl)c(Cl)c1)c1nccn1-c1ccccn1	0.185	-0.25
CC(C)(C)OC(=O)NC(Cc1cnc[nH]1)C(=O)NNC(=O)C1Cc2ccccc21 (centres undefined)	-0.03	nt
Cc1cc2nc(C)c(CCC(=O)N3CCN(Cc4ccc(C(C)C)cc4)CC3)c(C)n2n1	nt	-0.35
COc1ccc(/C=C/C(=O)Nc2nnc(SCc3ccccc3)s2)cc1OC	0.215	-0.95
NCCCC(=O)OC1CCCCC1	nt	-0.7
CN=c1scc(C)n1/N=C/c1ccco1	nt	-1.7
CCOC(=O)c1c2nc3ccccc3nc2n2c1[nH]c(=O)c1c3c(sc12)CCCC3	nt	-0.4
O=C(Nc1ccc(F)cc1)c1ccncc1	0.02	nt
O=C(NCCc1ccc(Cl)cc1)C1CCN(S(=O)(=O)c2ccc3c(c2)OCCO3)CC1	nt	0.5
O=c1[nH]c2cc(Cl)ccc2c(-c2ccccc2)c1Sc1ncn[nH]1	-0.59	1.5

Rewritten as labelled records: part of the list above.
CC(C)C(NS(=O)(=O)c1ccc2c(c1)CCCC(=O)N2)C(=O)NC1CCCC1 (centres undefined)
  Ba CapD inh = 0.545 | AID504770 = -0.2

CCCN(CCC)C(=O)c1cc2sc3ccccc3c2s1
  Ba CapD inh = nt | AID504770 = -1.3

O=C(CSc1nnc(NC2=NS(=O)(=O)c3ccccc32)s1)N1CCOCC1
  Ba CapD inh = nt | AID504770 = -0.45

Cc1cc(NC(=O)CN2CCN(S(=O)(=O)c3ccc(Cl)cc3)CC2)no1
  Ba CapD inh = nt | AID504770 = -0.55

In the list so far, these have a tert-butyl group.
SMILES	Ba CapD inh	AID504770
CC(C)N(Cc1ccccc1)C(=O)C(C)(C)C	0.275	-0.6
CC(C)(C)OC(=O)NC(Cc1cnc[nH]1)C(=O)NNC(=O)C1Cc2ccccc21 (centres undefined)	-0.03	nt

Remaining list, next part:
SMILES	Ba CapD inh	AID504770
O=c1[nH]c2ccc(Cl)cc2c(-c2ccccc2)c1SCCO	-0.84	-0.3
CCOC(=O)C(C)Sc1nnc(Cc2cc(=O)[nH]c(=O)[nH]2)n1-c1ccc(F)cc1 (centres undefined)	0.12	-0.55
Cc1ccc2occ(CC(=O)Nc3ccc(F)cc3)c2c1	-0.805	-1.3
C=CCNC(=O)C(C)Sc1ccc(Cl)cc1 (centres undefined)	-0.18	2.65
CCN(CC)C(=O)Cc1c(C(=O)O)[nH]c2ccc(Cl)cc12	0.67	-0.3
CCOc1ncccc1C(=O)Nc1c(C)cc(C)cc1Cl	nt	0.05
CCOC(=O)Nc1ccc(OC)cc1OC	-0.155	-1.4
Cc1c(C(=O)N2CCC(C(N)=O)CC2)sc2ncn(CC(=O)Nc3cccc(C(F)(F)F)c3)c(=O)c12	-0.35	nt
CCCn1c(-c2cccs2)n[nH]c1=O	1.45	0.25
CC1=C(C(=O)OCc2ccccc2)C(c2cccc([N+](=O)[O-])c2)C2=C(CC(c3cccs3)CC2=O)N1 (centres undefined)	-0.475	nt
Fc1ccc(/C=N/N2CCOCC2)cc1	nt	-0.8
CS(=O)(=NS(=O)(=O)c1cccc2nonc12)c1ccccc1 (centres undefined)	0.28	-0.1
O=C(CSc1nnc(-c2ccco2)n1CC1CCCO1)c1ccccc1 (centres undefined)	nt	-0.9
O=C1c2ccccc2C(=O)N1c1ccccc1S(=O)C(F)(F)F (centres undefined)	nt	-0.1
OCc1cccn1-c1ncc(C(F)(F)F)cc1Cl	-0.645	0.3
Cc1ccc(S(=O)(=O)N2CCCC2C(=O)O)cc1 (centres undefined)	-0.22	-0.05
CCOC(=O)c1sc2cccc(F)c2c1CSc1nnc(SCc2ccc(C(=O)OC)o2)s1	nt	0.2
CC(=O)NCCCc1nc2ccccc2[nH]1	0.105	-0.45
C=CCN(c1ccccc1OC)S(=O)(=O)c1cccc(C(=O)OC)c1	nt	2.45
Cc1cccc(NC(=O)CSc2nc3cc(S(=O)(=O)N(C)C)ccc3o2)c1	nt	0.1

Complete entries from above.
`OCc1cccn1-c1ncc(C(F)(F)F)cc1Cl` across the screens: Ba CapD inh = -0.645; AID504770 = 0.3
`CS(=O)(=NS(=O)(=O)c1cccc2nonc12)c1ccccc1` (centres undefined) across the screens: Ba CapD inh = 0.28; AID504770 = -0.1
`CCOc1ncccc1C(=O)Nc1c(C)cc(C)cc1Cl` across the screens: Ba CapD inh = nt; AID504770 = 0.05

Next part:
SMILES	Ba CapD inh	AID504770
O=C(O)CCS(=O)(=O)Cc1ccccc1	nt	0.8
CC(=O)Nc1ccc2oc3ccccc3c2c1	48.9	-0.35
COc1cc2c(cc1NC(=O)CSCC(=O)O)oc1ccccc12	nt	0.2
Cc1cc(C)c2[nH]c(C)cc(=O)c2c1	23.4	nt
O=C1c2ccccc2C(Nc2ccc(Cl)cc2)N1Cc1ccco1 (centres undefined)	-0.4	1.2
O=C(Nc1c(Br)c(C2CC2)nn1-c1ccccc1)C(Cl)(Cl)Cl	0.005	nt
Cn1c(=O)cc(N2CCOCC2)c2c(=O)n(-c3ccccc3)c(=O)n(-c3ccccc3)c21	-0.835	-0.6
COc1ccc(CNC(=O)C(C)C)cc1	0.06	1.25
Cc1n[nH]c(=O)c2cc3ccccc3n12	8.45	-0.95
Cc1cn(CCC(=O)NC2Cc3ccccc3C2)c2ccccc12	-0.255	1.3
Cc1ccc(Nc2nnns2)cc1	0.005	0.4
CC(=O)Nc1ccc(S(=O)(=O)N[C@@H](C)C(=O)N(C)Cc2cccs2)cc1	nt	-0.55
Cc1cc(NC(=O)CC#N)no1	-0.03	-0.65
C/C(=N\NC(=O)C(C)C)c1cc(C)c(C)cc1C	nt	-0.3
CN(C)C(=O)N1CCNCC1	-0.495	0.95
O=C(COc1ccccc1C(=O)N1CCN(c2ccccc2O)CC1)Nc1ccc(Br)cc1	nt	2.7
CC1CCC(C(C)C)C(OC(=O)COC(=O)c2ccc(Br)o2)C1 (centres undefined)	nt	-0.6
CCOc1ccccc1N1C(=O)CC(N(O)c2ccccc2)C1=O (centres undefined)	4.3	0.7
O=C(NCCc1cccs1)c1ccc(OC(F)(F)F)cc1	-0.235	-0.85
COc1ccc(-c2ccnc3nc(N4CCN(c5ccccc5)CC4)nn23)cc1	0.235	nt
Cc1cc(C)cc(NS(=O)(=O)N(C)C)c1	nt	-0.35
COc1cc(NC(=O)CCC2CCCC2)c(C(=O)N2CCN(C(C)=O)CC2)cc1OC	nt	-0.7
Cc1ccc(S(=O)(=O)N(C)C2CCCCC2)cc1-c1nnc2c3ccccc3c(C)nn12	0.595	-0.7
CCc1ccccc1Oc1ncccn1	nt	0.65
CC(C)(C)c1ccc(Oc2cccc(/C=N/NC(=O)c3cc4ccccc4s3)c2)cc1	-0.095	nt
CC(C)C1OCC2Cc3ccccc3C2O1 (centres undefined)	nt	1.8
N#Cc1cn(-c2ccccc2)nc1-c1ccccc1	0.265	0.1
CCOC(=O)c1ccc2c(c1)nc(COc1ccc(OC)cc1)n2CC	nt	0.3
CC(C)(S)C(N)C(=O)O (centres undefined)	-2.04	0.1
COc1cccc2sc(N)nc12	0.22	-0.85
COCc1cc(C)nc(Oc2ccccc2)c1C#N	nt	-0.05
N#Cc1c2ccc(Oc3ncc(C(F)(F)F)cc3Cl)cc2n2ccccc12	-0.415	nt
CCCCNC(=O)c1cn(CC)c2ccc(S(=O)(=O)N3CCCCCC3)cc2c1=O	-0.09	0.05
FC(F)(F)c1cc(-c2ccco2)nc(-n2nc(C(F)(F)F)cc2C2CC2)n1	89	0.5
COc1ccccc1CNC(=O)c1cnn2c(C)c(Cc3cccc(Br)c3)c(C)nc12	5.85	nt
CSc1nn(-c2ccccc2)cc1-c1noc(-c2cccs2)n1	-0.2	1.1
CCN1/C(=C\C(=S)Nc2ccccc2)Sc2ccccc21	-4.38*	0.55
CC(=Nc1ccccc1)C1=C(O)CCCC1=O	nt	-0.55
O=C(N1CCc2ccc(S(=O)(=O)NC(CO)c3ccccc3)cc2C1)C(F)(F)F (centres undefined)	-0.04	nt
Cc1nn(-c2ccc(F)cc2)c(Cl)c1/C=N/N=C1\C(=O)Nc2ccccc21	nt	0.75
CCNC(=O)N(CC)Cc1nc(-c2ccc(Cl)cc2)no1	-0.12	0.45
Cc1noc(-c2ccc(OCc3cnn(-c4ccccc4)c3)cc2O)c1Oc1ccc(F)cc1	0.15	1.85
COc1ccc(/C=C2\N=C(c3ccccc3)NNC2=O)cc1	-0.445	0.15
CC1(C)S[C@@H]2[C@H](NC(=O)COc3ccccc3)C(=O)N2C1C(=O)O (some centres undefined) (tested in a mixture with another compound)	-0.675	nt
CC(C)NC(=O)CCCn1c(=S)[nH]c2ccc(Br)cc2c1=O	0.215	2.2
CCOC(=O)/C(N=Nc1ccc(F)cc1F)=C(\C)O	-0.305	nt
